# S aureus helic: blocks Staphylococcus aureus DNA helicase; purified S. aureus helicase, fluorescence unwinding assay; about half of the hits fall short of the stated cut; AID 485395; 120,000 compounds, 0.05% hits; inhibition, %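 (tested at about 80 µM)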;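 active = both duplicates at 50% or more, or one of them with a favoured structure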;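 also: 0% = mean of negative control wells and 100% = mean of positive control wells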
# MgrA-DNA mod: modulators of Staphylococcus aureus MgrA DNA binding; inhibition, %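 (about 10 µg/mL by stock and volumes)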; AID 602314; fluorescence polarization; 84,000 compounds, 0.13% hits;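 active = above 50% in either of two replicates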;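 also: 0% = protein plus DNA without compound and 100% = DNA alone without protein; higher means less MgrA bound to DNA so lower polarization; one replicate is shown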
# Numbers without * were called inactive; . = no result given. The list is partial; rates above refer to the full screens.
# Below each SMILES: S aureus helic | MgrA-DNA mod
- Cc1ccc(C(C)C)c(OCC(=O)OCCN2C(=O)c3ccccc3C2=O)c1
    3 | .
- COc1ccc(-c2noc(CN(C(=O)CCc3ccccc3)C(C)C)n2)cc1
    -14 | .
- Nc1nc(SCC(=O)N(CCO)CCO)nc2sc3c(c12)CCCC3
    8 | 3.0
- Cc1ccc2c(c1)N(C(=O)N1CCC(C(=O)O)CC1)CC(C)O2 (centres undefined)
    3 | -1.8
- CCCNC(=O)Cn1cnc2sc(C(=O)NCCCN3CCOCC3)c(C)c2c1=O
    2 | -1.9
- Cc1ccc(/C(COc2ccccc2O)=N\O)cc1
    -9 | -2.8
- Fc1ccccc1Nc1ccc2ccccc2n1
    -14 | -1.1
- COc1ccc(S(=O)(=O)NC(C)C)cc1
    19 | -1.0
- N#Cc1nccnc1Sc1ccc(Cl)cc1
    . | -2.1
- NC(C(=O)O)C(O)c1ccccc1 (centres undefined)
    -1 | -2.0
- O=C(c1ccc(F)cc1)N1CCCCC(Sc2ccccn2)C1=O (centres undefined)
    -8 | .
- N#C/C(=C\NCc1ccco1)S(=O)(=O)c1ccc(Cl)cc1
    . | -0.4
- CCOC(=O)Cn1ncc2c3ccccc3n(CC(=O)OCC)c2c1=O
    -30 | .
- Cc1ccc(CSc2n[nH]c(-c3ccc(C(C)(C)C)cc3)n2)cc1
    . | 0.2
- Cc1ccc(Cl)cc1-n1c(=O)cc(N2CC(C)OC(C)C2)[nH]c1=O (centres undefined)
    6 | .
- Cc1c(Cc2ccccc2)c(=O)oc2c(O)c(O)ccc12
    10 | 3.1
- CC(=O)N=C1c2ccccc2CN1c1ccc(C#N)cc1
    15 | -3.2
- Cc1cc(C)c(-c2nnc(NC(=O)c3cccs3)s2)c(C)c1
    5 | .
- COc1ccc(C)cc1NS(=O)(=O)c1cccs1
    5 | -1.6
- Cc1ccc(NC(=O)C(C)Sc2nnc(C3CCCCC3)n2C)cc1 (centres undefined)
    2 | 2.8
- O=C(Nn1cnnc1)c1ccc(Cl)cc1
    -16 | .
- CC(SC1CCCC1)C(=O)Nc1ccnn1C(C)C (centres undefined)
    -6 | .
- COc1ccc(C2SCCN2C(=O)c2cc3ccccc3oc2=O)cc1Br (centres undefined)
    . | -0.4
- Fc1ccc(NC(=S)NC2CC2)cc1Cl
    8 | 1.6
- O=C1CSc2nc3ccccc3n21
    . | -1.4
- Cc1cc2c3c(c1)C1C=CCC1C(C(=O)O)N3CC1CC=CC21 (centres undefined)
    3 | .
- NC1(N)OC(CN2C(=O)c3ccccc3C2=O)CS1 (centres undefined)
    3 | 0.6
- O=C(Nc1ccc(-n2cnnn2)cc1)C1c2ccccc2Oc2ccccc21
    8 | .
- CC(C)(CC(=O)O)CC(=O)Nc1ccc2c(c1)OCO2
    -17 | .
- CC1=N/C(=C\c2cccs2)C(=O)O1
    . | 4.7
- CC1(C)Cc2c(C#N)c(N)sc(=S)c2CO1
    33 | .
- CCOC(=O)COc1cc(=O)[nH]c2ccc(OC)cc12
    9 | .
- CN(C)c1ccc(C=C(c2ccc(N)cc2)c2ccc(N)cc2)cc1
    . | -2.0
- Cc1nc2c(c3nc(C#N)c(C#N)nc3n2Cc2ccco2)c2nc3ccccc3n12
    -46 | .
- O=C(NCCCN1CCCC1)c1cc2cc3ccc(Cl)cc3nc2o1
    5 | .
- CCSc1nnc(NC(=O)C2Cc3ccccc3CN2C(=O)c2ccco2)s1 (centres undefined)
    -2 | .
- CC(C)(C)c1ccc(CCC2OCC(CN3CCOCC3)O2)cc1 (centres undefined)
    -4 | -1.2
- N#Cc1c(Cl)c(Cl)c(Cl)c(Cl)c1Cl
    . | -0.7
- Cc1ccc2oc(-c3cccc(N4C(=O)c5cccnc5C4=O)c3)nc2c1
    17 | .
- O=c1oc2ccc(Br)cc2cc1-c1nnc(Nc2cccc3ccccc23)s1
    . | -3.8
- C=CCN=C1CC(C)(C)CC(=O)/C1=C(\O)CCC(=O)OC
    12 | 1.6
- CC(C)C(C)(C#N)NC(=O)CSc1nc2ccc(Br)cc2c(=O)n1Cc1ccco1 (centres undefined)
    -21 | .
- COc1ccc(CCNC(=O)CCc2nc3sc4c(c3c(=O)[nH]2)CCCC4)cc1OC
    -1 | .
- Cc1cc(C)n(-c2ccc(Cl)c(C(=O)OCC(=O)NCc3ccco3)n2)n1
    10 | .
- O=C1CC(c2ccc(S(=O)(=O)N3CCCC3)cc2)CN1 (centres undefined)
    16 | .
- Cc1cccc(NC(=S)N(CCN2CCCCCC2)Cc2cccs2)c1
    18 | -0.3
- O=S1(=O)CCC(N2CCCCC2)C1 (centres undefined)
    3 | 0.0
- O=C(Nc1ccccc1F)Oc1ccccc1F
    1 | 5.0
- O=C(c1ccc2c(=O)n3c(nc2c1)CCCCC3)N1CCc2ccccc21
    26 | .
- O=C(COCc1cc(-c2ccc(F)cc2)on1)N1CCOCC1
    -9 | 0.5
- Cn1cc(NC(=O)NCC2CCCO2)c2ccccc2c1=O (centres undefined)
    -19 | .
- Cc1cc(C)n2ncc(/C(N)=N/OC(=O)c3ccccc3Cl)c2n1
    . | 1.2
- CSc1noc(-c2ccc(S(=O)(=O)NCc3ccccc3)s2)c1C#N
    . | 0.8
- CCOC(=O)c1c(C(=O)OCC)c(C)n(CCc2c[nH]c3ccccc23)c1C
    -5 | 1.0
- Cn1c2ccccc2c2cnn(CC(=O)NCCCN3CCN(C4CCCCC4)CC3)c(=O)c21
    29 | .
- CC(=O)N1c2ccccc2NC2=C(C(=O)CC(C)(C)C2)C1c1cccnc1 (centres undefined)
    9 | 2.1
- O=C(CCSc1nnc(-c2ccco2)o1)Nc1ccccc1
    8 | -1.8
- CC(NC(=O)C1=COCCO1)c1ccc(Cl)c(Cl)c1 (centres undefined)
    7 | .
- Cc1cccc(N2CCN(CC(O)CN3C(=O)c4ccccc4C3=O)CC2)c1 (centres undefined)
    -4 | 0.2
- Cc1oc(S(=O)(=O)N2CCCCC2)cc1C(=O)Nc1ccc(F)cc1
    . | -0.8

# Overlap with the part before: 3 entries, then new ones.
# Below each SMILES: S aureus helic | MgrA-DNA mod
- CC(NC(=O)C1=COCCO1)c1ccc(Cl)c(Cl)c1 (centres undefined)
    7 | .
- Cc1cccc(N2CCN(CC(O)CN3C(=O)c4ccccc4C3=O)CC2)c1 (centres undefined)
    -4 | 0.2
- Cc1oc(S(=O)(=O)N2CCCCC2)cc1C(=O)Nc1ccc(F)cc1
    . | -0.8
- CC1Cc2ccccc2N1C(=O)COc1cccc(C#N)c1 (centres undefined)
    9 | .
- O=C1COc2ccc(C(=O)COC(=O)c3cccnc3)cc2N1
    4 | .
- Cc1nnsc1C(=O)NCc1ccc(N2CCOCC2)cc1
    . | 1.2
- CC(=O)OCc1csc(-c2ccc(Cl)cc2)n1
    . | -1.3
- COc1ccc(-c2ccc[nH]2)cc1
    -20 | .
- CC1CCCCC1NC(=O)CC1Oc2ccccc2NC1=O (centres undefined)
    0 | .
- CCOC(=O)c1cc2oc(C)cc2n1CCCN1C(=O)c2ccccc2C1=O
    5 | -23
- CCOc1ncccc1C(=O)N1CCCC1c1nc2ccccc2s1 (centres undefined)
    0 | .
- COC(=O)c1ccc(N=C2SC(C(=O)NCCc3ccccc3)CC(=O)N2C)cc1 (centres undefined)
    . | -2.0
- O=c1[nH]c(=S)n(-c2ccccc2)c(O)c1C=Nc1ccc(N2CCOCC2)c(Br)c1
    -19 | -2.6
- N#CCc1nc(-c2cccc(Cl)c2)n[nH]1
    0 | 4.0
- Cc1[nH]n(-c2ccccc2)c(=O)c1C=Nc1cc(Br)ccc1O
    . | 0.7
- CC(NCc1ccc2c(c1)OCO2)C(=O)N1CCc2ccccc21 (centres undefined)
    6 | .
- O=C(Cn1c(=O)n(CC2CCC(C(=O)NCc3ccccc3)CC2)c(=O)c2ccccc21)NCc1ccco1 (centres undefined)
    -19 | .
- COc1cccc(CN(C)S(=O)(=O)c2ccc3c(c2)OCCO3)c1
    -8 | .
- N#Cc1c2n(c(=O)[nH]c1=O)CCC2
    13 | .
- O=C(CSc1ccc2nnc(-c3cccnc3)n2n1)NCc1ccccc1
    15 | .
- Cn1cc(C(=O)NC2CCCCCC2)c(=O)c2cc(S(=O)(=O)N3CCCCCC3)ccc21
    11 | 0.9
- N#CC(C#N)=C(N)/C(C#N)=C\c1ccc(-c2ccccc2)o1
    4 | 8.8
- O=C(CC1(O)C(=O)N(Cc2ccccc2Cl)c2ccccc21)c1ccccn1 (centres undefined)
    -25 | .
- CC(c1ccccc1)C1NC(C(=O)O)CS1 (centres undefined)
    9 | -3.5
- O=C(CSc1ncccc1C(F)(F)F)c1ccc(Cl)cc1
    . | 1.2
- CCOC(=O)c1c(N)sc2c1CC(C)(C)OC2
    15 | .
- NNC(=O)CSc1nc2scc(-c3ccccc3)c2c(=O)n1-c1ccccc1
    . | -1.8
- CCN=c1scc(-c2ccccc2)n1/N=C/c1ccccn1
    7 | .
- CSC(SC)=C(C#N)C(=O)c1ccc(Cl)cc1
    . | -1.6
- O=C(CN1CCN(Cc2ccccc2)CC1)N1CCOCC1
    0 | -1.7
- CC(C)CN(CC(C)C)S(=O)(=O)N1CCC(C(=O)NC2CC2)CC1
    4 | .
- Cc1cccc(C(=O)NCCCN2CCCC2=O)c1
    2 | .
- COc1cccc(C(=O)NCCc2cc3c(C)ccc(C)c3[nH]c2=O)c1OC
    -19 | .
- CCCNC(=O)c1ccc(CS(=O)(=O)c2ccc(OC)cc2)o1
    5 | -0.7
- O=c1cc(C(F)(F)F)[nH]c2ccc(OC(F)(F)F)cc12
    . | 3.0
- CCc1ccc(CCC(=O)Nc2sc3c(c2C(=O)OC)CCCC3)o1
    5 | 1.9
- COc1c2c(nc3occc13)C(CC=C(C)C)(OC)C(=O)C=C2 (centres undefined)
    5 | -3.9
- CC(C)n1c(C(O)c2ccc3c(c2)OCO3)nc2ccccc21 (centres undefined)
    1 | .
- O=c1oc(-c2cccs2)nc2cccc(Cl)c12
    . | -1.9
- CCOc1c(Br)cc(/C=c2/sc3nc4ccccc4n3c2=O)cc1OC
    . | -2.5
- COC(=O)c1cnc2sc3ccccc3n2c1=O
    -5 | 6.0
- Cc1ccccc1NS(=O)(=O)c1ccc2[nH]cc(C(=O)N(C)Cc3ccccc3)c(=O)c2c1
    18 | 0.5
- Cc1ccc(Cl)cc1N1CCN(CCNS(=O)(=O)c2ccc3c(c2)C(C)(C)C(=O)N3C)CC1
    5 | .
- CN(c1ccccc1C(=O)N1CCN(c2cccc(Cl)c2)CC1)S(C)(=O)=O
    10 | 1.9
- COC(=O)Cc1ccccn1
    2 | .
- COC(=O)c1nn(-c2ccc(Br)cc2C)c(Br)c1C(=O)OC
    18 | -5.5
- COc1cccc([C@@H]2[C@@H](c3ccc(OC)c(F)c3)N3C=Cc4ccccc4[C@@H]3C2(C#N)C#N)c1
    -3 | 1.4
- Cc1cc(C)nc(SC/C(N)=N\O)n1
    10 | .
- Cc1ccc(S(=O)(=O)Nc2ccc(S(=O)(=O)Nc3cc(C)on3)cc2)cc1
    . | 1.8
- COc1ccccc1-c1[nH]ncc1CNCc1ccccc1C
    2 | -1.0
- CC(OC(=O)c1ccc2ncsc2c1)C(=O)Nc1ccc(S(N)(=O)=O)cc1 (centres undefined)
    -3 | .
- CCN(CC)c1ccc(Nc2cc(C)c(C#N)c3nc4ccccc4n23)cc1
    4 | 3.6
- Cc1nn(-c2ccccc2)c(-c2ccccc2)c1C(=O)O
    -7 | -3.6
- CCOC(=O)N1CCC(c2nc(C)sc2C(=O)NCc2ccc(C)cc2)CC1
    15 | .
- Cc1ccc(-n2nc3ccc(NC(=O)c4ccc5c(c4)OCCO5)cc3n2)cc1Cl
    . | -1.5
- CC1(C)CN(c2ccc(C(=O)c3ccccc3)cc2)C1=O
    . | 0.2
- COC(=O)Cc1nc(NC(=O)C2CCC2C(=O)O)sc1C (centres undefined)
    . | -2.5
- O=C(Cn1cnc2ccccc2c1=O)OC1CCCCC1
    2 | -1.4
- CC1CCCCN1C(=O)CSCC(=O)Nc1nc(-c2cccs2)cs1 (centres undefined)
    19 | .
- COC(=O)c1ccc(CNCC(=O)Nc2ccc(C(=O)OC)cc2)cc1
    -14 | .
- CCC(C)Sc1nc2c([nH]c3ccccc32)c(=O)n1-c1ccccc1 (centres undefined)
    10 | 0.2
- Cc1ccc(C(=O)NC2CC3CCCC(C2)N3C(=O)NC2CCCCC2)cc1 (centres undefined)
    2 | 0.0
- Cc1cc(C)c(C#N)c(SCSc2ccccc2)n1
    11 | -4.1

# Profiles from above. Screens in order: S aureus helic | MgrA-DNA mod
# CC1=N/C(=C\c2cccs2)C(=O)O1 across the screens: . | 4.7
# CSC(SC)=C(C#N)C(=O)c1ccc(Cl)cc1 across the screens: . | -1.6
# Cc1cc(C)c(C#N)c(SCSc2ccccc2)n1 across the screens: 11 | -4.1
# Cc1cc(C)n(-c2ccc(Cl)c(C(=O)OCC(=O)NCc3ccco3)n2)n1 across the screens: 10 | .

# (list continues)
# Below each SMILES: S aureus helic | MgrA-DNA mod
- CC(C)(C)OC(=O)N1C(C(=O)O)COC1(C)C (centres undefined)
    . | -2.1
- FC(F)(F)c1cc(-c2ccccn2)nc2cc(-c3ccccc3)nn12
    . | -3.1
- Cc1ccc(S(=O)(=O)N2CC(=O)c3ccccc3-c3ccccc32)cc1
    7 | -2.4
- c1ccc(-n2cnc3cc(NCc4ccco4)ccc32)cc1
    2 | -0.4
- Cc1cccc(C(=O)N/N=C/c2ccc[nH]2)c1
    -12 | 1.8
- O=C(Nc1ncnc2sccc12)C1CCCCC1
    8 | .
- CSc1nnc(-c2ccc(C(C)(C)C)cc2)n1Cc1ccco1
    . | -1.8
- Clc1ccc2c(Nc3ccccc3)ccnc2c1
    . | -1.1
- O=C(Cc1ccc(-c2ccccc2)cc1)OCC(=O)N1CCCCC1
    10 | -0.1
- Cc1nc2cccc(C(=O)N3CCN(c4ccccc4)CC3)c2o1
    4 | 0.6
- O=c1c2c3c(sc2nc(SCc2ccccc2)n1Cc1ccco1)CCC3
    2 | 1.7
- N#Cc1ccc(C(=O)CSc2cccc[n+]2[O-])cc1
    3 | .
- FC(F)(F)c1cccc(N2CCN(C3=Cc4ccccc4C3)CC2)c1
    . | 0.0

# Screening results (PubChem)
